# Sfp PPTase inh = qHTS Assay for Inhibitors of Bacillus subtilis Sfp phosphopantetheinyl transferase (PPTase); 4'-phosphopantetheinyl transferase ffp (Bacillus subtilis), Q9F4F7; Biochemical Sfp PPTase activity, qHTS; Potency, µM, inactives show max response, negative = inhibition, hits mostly inhibitors; 3.5% of 310,000 active; active = well fitted inhibition curve with a large enough effect; inconclusive = small, poorly fitted or top-dose-only effect, or another doubt; inactive = no such curve, though single readings can be large or run the other way;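 also: the enzyme is Sfp with the accession as filed and its product quenches rhodamine fluorescence; potency is read from the fitted curve at half-maximal effect; 0% = enzyme reaction without inhibitor and -100% = no enzyme wells; top concentration of the series not given in the record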
#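 Compounds were incubated with enzyme (final 15 nM) for 15 min at room temperature before substrate addition started the reaction. Fluorescence at 525 nm excitation, 598 nm emission was recorded immediately and after 30 minutes.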
# CtBP-E1A blk = qHTS Assay for Inhibitors of the CtBP/E1A Interaction. CtBP / adenovirus E1A interaction (AlphaScreen). AlphaScreen GST-E1A/His-CtBP binding, 1536-well; stronger effect = lower value; control for the full effect not named in the record. activity change, % (test concentration not listed). 0.49% of 340,000 active. AID 651724, 2012; in the data active means activity change below about -65%; inconclusive means about -30% to -65%; inactive means above about -30%; also: % is scaled to controls: 0 for no effect and ±100 for the full control effect; compound concentration not given in the record
#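 Homogeneous bead-based format: GST-tagged E1A captured on glutathione donor beads, His-tagged CtBP on nickel acceptor beads; compounds precede bead addition by 2 h at 37 °C.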
# Six1-Eya2 inh = qHTS Assay for Inhibitors of the Six1/Eya2 Interaction | AlphaScreen GST-Six1/His-Eya2 binding, biochemical; stronger effect = lower value; control for the full effect not named in the record | AID 651725, 2012 | 0.56% of 360,000 active | activity change, % (test concentration not listed) | Homeobox protein SIX1 (Homo sapiens) + Protein phosphatase EYA2 (Homo sapiens), …; in the data active = activity change below about -65%; inconclusive = about -30% to -65%; inactive = above about -30%; also: % is scaled to controls: 0 for no effect and ±100 for the full control effect; compound concentration not given in the record
# Target sequence (O00167 whole entry, looked up): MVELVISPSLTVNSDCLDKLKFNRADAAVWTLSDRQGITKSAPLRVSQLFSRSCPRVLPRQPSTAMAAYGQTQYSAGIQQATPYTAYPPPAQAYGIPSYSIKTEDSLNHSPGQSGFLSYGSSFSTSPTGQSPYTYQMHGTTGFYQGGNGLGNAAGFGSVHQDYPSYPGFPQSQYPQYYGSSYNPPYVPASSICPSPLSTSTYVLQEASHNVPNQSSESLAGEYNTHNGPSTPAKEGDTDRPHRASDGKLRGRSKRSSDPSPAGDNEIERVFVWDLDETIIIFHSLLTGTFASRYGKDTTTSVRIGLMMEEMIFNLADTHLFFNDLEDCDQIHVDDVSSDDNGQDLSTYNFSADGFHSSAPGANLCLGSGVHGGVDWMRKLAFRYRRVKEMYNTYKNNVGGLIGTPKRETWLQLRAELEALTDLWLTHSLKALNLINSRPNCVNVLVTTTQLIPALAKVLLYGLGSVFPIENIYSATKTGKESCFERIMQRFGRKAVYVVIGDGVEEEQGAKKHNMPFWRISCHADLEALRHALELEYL
# Target sequence (Q15475 whole entry, looked up): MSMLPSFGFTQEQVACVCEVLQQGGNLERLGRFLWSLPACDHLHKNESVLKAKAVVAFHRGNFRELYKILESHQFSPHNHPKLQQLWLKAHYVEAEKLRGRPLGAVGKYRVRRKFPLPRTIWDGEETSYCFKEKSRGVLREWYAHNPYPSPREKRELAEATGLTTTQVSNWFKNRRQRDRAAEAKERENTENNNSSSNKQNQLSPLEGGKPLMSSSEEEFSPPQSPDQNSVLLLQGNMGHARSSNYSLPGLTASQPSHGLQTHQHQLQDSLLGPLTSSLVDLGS
#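 Compounds are tested against tagged Six1 and Eya2 proteins bridged by glutathione donor and nickel acceptor beads; after a one-hour incubation at 37 °C without light, AlphaScreen emission is recorded.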
# PINK1 expr mod = A Quantitative High throughput Screen to Identify Chemical Modulators of PINK1 Expression; Potency, µM (titrated, usually from 76.6 µM), without a hit: top-dose activation (PINK1 increase), actives largely listed as activators; AID 624263, 2012; 0.2% of 410,000 active; PINK1 immunofluorescence, high-content cytometry, 24 h; active = well fitted activation curve with a large enough effect; inconclusive = small, poorly fitted or top-dose-only effect; inactive = flat fitted curve, though single readings scatter; cell line not stated here;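 also: potency is read from the fitted curve at half-maximal effect; % of control where 0% means no effect; nearly all actives have a fitted effect of over 65% in size; a mitochondrial uncoupler was the plate control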
#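 PINK1 protein, normally rapidly degraded, was detected by immunofluorescence after 24 hour compound treatment of a stable cell line. Titration data (5 concentrations) came from laser-scanning cytometry, with CCCP-treated wells as controls.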
# D2 potentiator = Beta-Arrestin HTS for Positive Allosteric Modulators of the Human D2 Dopamine Receptor: Potentiators. DiscoveRx D2 beta-arrestin cells, luminescence, 90 min; 100% = 57 uM dopamine signal. potentiation, % (concentration not given with the values). 0.23% of 360,000 active; active = potentiation of 50% or more; inconclusive = 30% to 50%; inactive = 30% or less;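 also: compound concentration not given in the record; tested on top of an EC20 dose of dopamine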
#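 PathHunter D2 cells, attached overnight at 37 deg C, received compound in DMSO plus dopamine at EC20 (50 nM final) for 90 min at 37 deg C. Beta-arrestin recruitment was read as luminescence after 1 h with detection reagent at ambient temperature.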
# TRPV1 PAM = HTS Assay for Compounds that Act as Potentiators of the Vanilloid Receptor 1; 0.02% of 320,000 active; potentiation, % at 8.33 µM; AID 540277, 2011; TRPV1-expressing cells, Fluo-8 calcium influx, capsaicin EC20 potentiation; host cell line not named in the record; control for the full effect not named in the record; active means potentiation above 80%; inconclusive means 30% to 80%; inactive means below 30%; also: 0% is about no effect
#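 Cells expressing TRPV1 were dye-loaded with Fluo-8 and read kinetically: 10 s baseline, 3 min after compound (agonist portion), then 2 min after EC20 capsaicin (allosteric enhancer portion). Calcium-bound dye fluorescence at 480/520 nm.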
# D2 ag = Beta-Arrestin HTS for Positive Allosteric Modulators of the Human D2 Dopamine Receptor: Agonists; D(2) dopamine receptor (Homo sapiens), P14416; DiscoveRx PathHunter D2 beta-arrestin, luminescence, 90 min; 100% = 57 uM dopamine signal; activation, % (test concentration not listed); 0.084% of 360,000 active; in the data active = activation above about 40%; inconclusive = about 15% to 40%; inactive = below about 15%; also: compound concentration not given in the record; the text of the record calls up to 30% inactive
#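 Agonist mode: compounds alone added to overnight-plated D2 PathHunter cells for 90 min at 37 C, with 57 uM final dopamine (EC100) defining full response. Beta-arrestin recruitment detected by chemiluminescent reagent, read after 1 h at ambient temperature.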
# Active calls of the source: *; ? = inconclusive; · = no result given; & = joins results of further samples; [ ] = dose if it differs, or a comment.
SMILES,Sfp PPTase inh,CtBP-E1A blk,Six1-Eya2 inh,PINK1 expr mod,D2 potentiator,TRPV1 PAM,D2 ag
CC1(C)CC(=O)c2cc(N=C/C(C(=O)c3ccccc3)=C(\O)c3ccccc3)c(=O)oc2C1,-7%,·,15,-0.4%,-9,1,-4.4
COc1ccc(C)cc1NC(=O)CSc1nnc(-c2cc(C)[nH]n2)n1N,5%,1,0,-0.5%,-12,-17,-4.9
CC[N+]1(C)CC2CCC(C)(C1)C2(C)C (stereo not given),-12%,·,5,0.9%,3,4,-5.7
Cc1cccc(OCC(=O)Nc2ccc(C(=O)Nc3ccccc3C(=O)O)cc2)c1C,-1%,-23,?,-0.2%,-4,-17,-1.7
COCCN(CCOC)C(=O)CN1C(=O)NC2(CCCc3sccc32)C1=O (stereo not given),3%,-1,1,0.5%,-2,1,-4.1
CSc1ccccc1C(=O)C1CCCN(S(=O)(=O)N(C)C)C1 (stereo not given),-4%,·,5,-1.1%,-9,-12,3.7
CCN(CC)C(=O)c1ccc(NS(=O)(=O)c2ccccc2)cc1,10%,8,5,-0.9%,-27,5,-7.0
CCCCN1CNC(=S)N(CCc2ccc(OCC)c(OCC)c2)C1,8%,0,-1,0.1%,-11,16,-0.6
CCC(C(=O)NCc1ccc(C)cc1)c1ccccc1 (stereo not given),4%,·,4,2.6%,9,-20,0.6
COCCNC(=O)CN1CCOc2ccccc21,19%,0,7,1.3%,-2,·,-5.6
COc1ccc(CCC(=O)NNC(=O)c2cc(Cl)ccc2OC)cc1,15%,2,-5,1.7%,-2,2,0.0
O=C(O)c1ccc(NC(=S)Nc2ccccc2)cc1,50µM*,13,20,0.4%,2,5,-1.3
CCCOc1ccc(N2C(=O)CC(SCC(N)C(=O)OCC)C2=O)cc1 (stereo not given),-16%,3,1,3.3%,1,6,-4.0
Cc1nc(NCCO)c(C#N)c2c1COC(C)(C)C2,-1%,9,3,3.2%,9,-12,-2.9
Cc1ccccc1[C@H](NC1c2ccccc2C=Cc2ccccc21)P(=O)(c1ccccc1)c1ccccc1,·,-8,-14,12%,·,·,·
CCN(Cc1ccc2c(c1)OCCO2)C(=O)CN1C(=O)NC2(CCCCC2)C1=O,·,15,-10,0.2%,-3,11,-2.3
C=CCNC(=O)/C(C#N)=C/c1ccc(SC)cc1,-11%,0,4,-2.3%,-3,-16,-2.1
Cc1ccccc1-c1ccc2c(c1)O[C@@H](CN(C)Cc1ccc(C(=O)O)cc1)[C@@H](C)CN([C@H](C)CO)S2(=O)=O,·,5,-1,2.9%,-8,·,-3.6
O=C(N/N=C/c1ccc(Br)o1)c1cc([N+](=O)[O-])cc([N+](=O)[O-])c1,-11%,·,3,4.4%,6,4,2.2
CCCN1Cc2cccc(C(=O)NCc3ccc4c(c3)OCO4)c2C1=O,-5%,-7,-18,1.2%,4,-21,-3.5
O=C(O)c1ccccc1-c1nc2ccccc2c(=O)n1O,-4%,-9,3,-0.8%,-4,-10,7.1
CCC(CC)C(=O)Nc1cccc(C(=O)Nc2ccc(S(=O)(=O)Nc3ccc(C)cc3)cc2)c1,16%,-3,-3,0.3%[38.3 µM],-2,-13,3.3
CC(=O)Nc1ccccc1NC(=O)CC(C)(C)C,-25%,-3,-6,-0.7%,-5,-13,-2.7
Cc1ccc(C)c(CS(=O)(=O)c2cn(CC(=O)N3CCC(C)CC3)c3ccccc23)c1,2%,2,1,4.7%,-10,-16,-4.4
CCC(CC)CN1CCC(CN2C(=S)NC[C@@H]2[C@@H](C)CC)CC1,·,8,5,-0.4%,-17,·,-7.0
CCOC(=O)c1ccc(Nc2nnc3nc(C)cc(C)n23)cc1,3%,-9,0,-2.7%,-7,-6,-3.3
Cc1cccc(NC(=S)NNC(=O)c2cc3c(s2)CCC(C)C3)c1C (stereo not given),5%,-14,-9,0.3%,-7,-8,-5.8
CC(=O)c1cnc2nc(SCc3ccccc3)nn2c1C,3%,-1,-2,-0.7%,-1,-27,-1.9
N/C(Cn1cncn1)=N\OC(=O)c1ccc(Cl)cc1,-4%,21,7,3.5%,?,4,8.4
O=C(COc1ccc(Br)cc1Cl)NC1CCCCC1,-9%,3,16,9.2%,-14,-7,-1.9
CN(C)C(=S)Nc1nc2ccccc2s1,14µM*,·,-6,1.4%,14,-13,-2.4
O=C(CSc1nc2ccc(Cl)cc2[nH]1)c1c[nH]c2ccccc12,23%,5,-2,5.9%,-4,7,4.4
CCC1(CC)NC(=O)N(CC(=O)NC(=O)NCc2ccccc2)C1=O,3%,4,3,2.6%,-5,?,-5.6
O=C(NCc1ccc2c(c1)OCO2)C1CCCN(S(=O)(=O)c2cccc3nonc23)C1 (stereo not given),-11%,-5,-4,26%,3,4,1.5
O=C(NCC(c1cccs1)N1CCOCC1)c1cc(S(=O)(=O)N2CCOCC2)ccc1F (stereo not given),·,4,-3,-2.4%,9,28,1.7
OCC[C@@H]1C[C@H](O)[C@@H](O)[C@]2(OCc3ccc4ccccc4c32)O1,·,5,-1,0.7%,3,·,-4.0
O=C(NCc1ccco1)c1cc([N+](=O)[O-])ccc1Cl,1%,3,-3,0.2%,0,2,2.3
CCCc1cc(=O)[nH]c2nnc(SCC(=O)N3CC(C)OC(C)C3)n12 (stereo not given),·,11,-2,1.1%,4,10,-2.7
CCOC(=O)c1[nH]c2ccc(F)cc2c1N=C(C)N(CC)CC,18%,9,3,-2.7%,-7,4,-4.5
CCOc1ccccc1N1CCN(CC(=O)Nc2nnc(CC)s2)CC1,1%,-3,1,0.2%,-29,4,-1.6
CC(=O)Nc1ccc(S(=O)(=O)N2CCN(CC3CC4C=CC3C4)CC2)cc1 (stereo not given),?,·,5,-0.9%,-12,1,2.1
COc1cc(O)c(C(CCN2CCCCC2)c2ccc(N(C)C)cc2)c(OC)c1 (stereo not given),-18%&-6%,-7,-29,0.0%,-16,-22,-0.5
Cc1ccc(Cl)cc1NC(=O)c1cc(S(=O)(=O)N2CCOCC2)cn1C,-1%,-13,2,1.1%&-0.1%,-5,8,-4.5
COC(=O)C1=C(C)NC(=O)CC1c1cc(Br)ccc1F (stereo not given),7%,2,21,1.8%,-3,?,-4.4
CC(C)Sc1oc(-c2ccco2)nc1S(=O)(=O)c1ccccc1,-3%,43,12,0.6%[38.3 µM],-15,-2,-2.6
COc1ccc(S(=O)(=O)N(Cc2nc3ccccc3c(=O)[nH]2)C2CCCC2)cc1,3%,0,0,-0.5%,-27,2,-1.4
CCOc1cc(/C=N/Nc2ccc(C(=O)O)cc2)ccc1OC(=O)c1ccccc1C,-13%,7,-1,1.5%,2,26,10
O=C(CCn1c(=O)oc2ccccc21)Nc1cccc(Br)c1,4%,8,-6,1.2%,-30,22,1.1
COc1ccc(CN(C)Cc2nc(Cc3cccc(F)c3)no2)c2cccnc12,9%,19,-6,-0.2%,1,-7,9.1
Cn1c(N)c(-c2ccccc2)c2ccc([N+](=O)[O-])cc2c1=O,-20%,-3,-13,1.6%,-11,-6,-2.9
O=C(CSc1nnc(CNc2ccccc2)o1)N1CCN(C(=O)c2ccco2)CC1,11%,6,4,3.8%[38.3 µM],10,2,0.0
Cc1ccc(C)c(NC(=O)COC(=O)c2ccc3c(c2)OCCO3)c1,·,·,2,-0.4%,0,-1,-1.5
CCN(c1ccccc1)S(=O)(=O)c1csc(C(N)=O)c1,26%,8,3,1.7%,-5,3,-6.2
COc1ccc(NS(=O)(=O)c2cccc(C(=O)N3CCN(Cc4ccc5c(c4)OCO5)CC3)c2)cc1,·,-10,-28,2.9%,-14,11,1.4
O=C(Nc1cnc2sc3c(n2c1=O)CCCC3)c1ccc(F)cc1,5%,7,0,-0.7%,1,-12,-1.3
CCN(C(=O)/C=C/c1ccc2c(c1)OCO2)c1ccccc1,10%,-11,-3,2.8%,-18,-9,-3.8
CCC(C(=O)NC1CCCC1)n1c(SCc2cccc(C)c2)nc2ccncc21 (stereo not given),5%,0,5,1.4%,-12,18,-2.3
CC(=O)C1=NN(c2ccccc2)C(c2cccs2)N1c1ccc(N(C)C)cc1 (stereo not given),9%,?,?,0.4%[38.3 µM],-8,7,-1.0
Cc1cc(C)n(-c2nnc(C)n2/N=C/c2cc(Br)ccc2OCc2ccccc2)n1,28µM*,7,-4,-1.9%,-9,-22,-3.4
COc1ccc(CNC(=O)N2CCc3nc(Nc4cc(OC)c(OC)c(OC)c4)ncc3C2)cc1,·,?,-21,-0.1%,-3,·,2.1

# Two entries drawn at random from those above:
SMILES,Sfp PPTase inh,CtBP-E1A blk,Six1-Eya2 inh,PINK1 expr mod,D2 potentiator,TRPV1 PAM,D2 ag
CC(=O)Nc1ccc(S(=O)(=O)N2CCN(CC3CC4C=CC3C4)CC2)cc1 (stereo not given),?,·,5,-0.9%,-12,1,2.1
COC(=O)C1=C(C)NC(=O)CC1c1cc(Br)ccc1F (stereo not given),7%,2,21,1.8%,-3,?,-4.4

# Further records follow.
SMILES,Sfp PPTase inh,CtBP-E1A blk,Six1-Eya2 inh,PINK1 expr mod,D2 potentiator,TRPV1 PAM,D2 ag
O=C(NCCc1c[nH]c2ccccc12)C1CCN(S(=O)(=O)c2ccccc2)CC1,13%,-1,7,0.5%,-9,23,0.7
Cc1ccc(-n2c(O)c(/C=N/Nc3ccc(S(=O)(=O)N4CCOCC4)cc3[N+](=O)[O-])c3ccccc3c2=O)c(C)c1,-18%,?,?,?,-8,5,-3.3
CCC1(C)Cc2c(sc3nn[nH]c(=O)c23)CO1 (stereo not given),-26%,-1,1,-2.1%[38.3 µM],-2,0,0.7
O=C(CCS(=O)(=O)c1ccc(Cl)cc1)N1CCCc2ccccc21,·,-10,18,0.8%,-10,·,-0.6
COc1ncnc(OC)c1S(=O)(=O)NCc1ccccc1,15%,1,22,0.0%,-8,1,-1.7

# Screening results as filed in PubChem BioAssay.
